KAT2A inh = blocks human GCN5L2 histone acetyltransferase | Potency, µM (doses to about 58.9 µM), for inactives: at the highest dose activity change, negative = inhibition, actives largely listed as inhibitors | Q92830 | GCN5L2 HAT assay, ThioGlo1 CoA-SH fluorescence | hit rate 0.21% among 390,000; active = well fitted inhibition curve with a large enough effect; inconclusive = small, poorly fitted or top-dose-only effect, or another doubt; inactive = no such curve, though single readings can be large or run the other way
Target sequence (Q92830 whole entry, looked up): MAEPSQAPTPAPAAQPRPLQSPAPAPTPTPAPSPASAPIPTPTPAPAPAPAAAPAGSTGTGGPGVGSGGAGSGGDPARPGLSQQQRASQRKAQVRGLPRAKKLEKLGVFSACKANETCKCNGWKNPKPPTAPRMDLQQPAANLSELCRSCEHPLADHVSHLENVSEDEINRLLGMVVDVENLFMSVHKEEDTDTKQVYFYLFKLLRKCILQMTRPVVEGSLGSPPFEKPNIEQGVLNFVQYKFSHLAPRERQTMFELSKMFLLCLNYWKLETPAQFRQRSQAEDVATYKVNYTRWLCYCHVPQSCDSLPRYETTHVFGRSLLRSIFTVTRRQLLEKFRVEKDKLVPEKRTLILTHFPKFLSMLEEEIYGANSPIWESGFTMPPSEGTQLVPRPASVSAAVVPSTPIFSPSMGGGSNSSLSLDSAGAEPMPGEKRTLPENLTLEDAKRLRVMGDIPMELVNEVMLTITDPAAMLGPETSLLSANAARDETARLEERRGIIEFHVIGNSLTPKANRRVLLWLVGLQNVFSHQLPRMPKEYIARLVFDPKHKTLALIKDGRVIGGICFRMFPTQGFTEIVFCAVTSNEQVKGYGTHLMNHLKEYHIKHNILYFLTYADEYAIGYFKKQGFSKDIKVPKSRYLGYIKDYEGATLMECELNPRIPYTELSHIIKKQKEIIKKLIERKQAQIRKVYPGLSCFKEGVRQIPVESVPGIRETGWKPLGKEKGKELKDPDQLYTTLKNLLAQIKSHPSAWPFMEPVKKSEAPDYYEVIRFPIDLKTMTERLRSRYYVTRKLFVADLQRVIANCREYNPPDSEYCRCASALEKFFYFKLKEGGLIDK
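Preincubate 20nM GCN5L2 with compound 15 min, RT → add 50uM ThioGlo1 + 75uM H3(1-25) + 70uM acetyl-CoA → read fluorescence 0 and 20 min. Primary qHTS; fluorescent artifacts likely.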
* hit, by the source's call; ? = inconclusive; & = joins results of further samples; [ ] = another dose, or the depositor's remark. % is scaled to controls: 0 for no effect and ±100 for the full control effect; potency is read from the fitted curve at half-maximal effect. These rows are one share of the data; most or all hits stand in other tables.

KAT2A inh	smiles
0%	CN(C)C(=O)c1ccc(-c2n[nH]c(=O)c3ccccc23)cc1
-10%	Cn1c(N)c(C(=O)COC(=O)CNC(=O)c2ccc(Cl)cc2Cl)c(=O)n(C)c1=O
0%	O=C(COc1ccc(Br)cc1)NCCCNC(=O)c1cnccn1
0%	O=[N+]([O-])c1ccccc1N/N=C1\CCc2ccccc21
-6%	Cc1ccc(C)c(OCC(=O)Nc2c[nH]c(=O)[nH]c2=O)c1
0%	O=C(CCCC(=O)N/N=C\c1ccccn1)N/N=C\c1ccccn1
-3%	O=C(Nc1ccc2nc3n(c(=O)c2c1)CCCCC3)c1ccccc1[N+](=O)[O-]
-5%	Cc1cc(C)n(CCNC(=O)C2CCC(=O)N(CC3CCCCC3)C2)n1 (configuration not stated)
?	CN(C)CCNc1oc(/C=C/c2ccccc2)nc1C#N
-4%	O=C(NC1CCCCCC1)c1cccnc1Sc1ccc(Cl)cc1
-1%	Cc1ccc(C)c(NC(=O)CN(C)C(=O)c2ccccc2OCc2ccccc2Cl)c1
-6%	CCCOC(=O)c1c(NC(=O)c2nc3ncccn3n2)sc(C(=O)OCC)c1C
-3%&2%	Cc1ccc(-n2c3c(c(=O)[nH]c2=O)C(NS(=O)(=O)c2ccc(Cl)cc2)(C(F)(F)F)C(=O)N3)cc1 (configuration not stated)
-1%	COc1ccc(C)cc1NC(=S)NNC(=O)c1ccccc1Cl
46%&17%[activator]	CN1[C@@H]2CC[C@H]1CC(OC(c1ccccc1)c1ccccc1)C2 (some centres not stated)
-3%	Cc1cc(NC(=O)c2ccc(F)cc2)n(CCOC(=O)c2ccc(F)cc2)n1
-8%	Cc1ccccc1OCC(=O)NC(=S)Nc1ccccc1N1CCN(S(C)(=O)=O)CC1
-4%	O=C(CCCc1nc(-c2ccc(Cl)cc2)no1)NC1CCCCC1
2%	CC(=O)C1CCN(Cc2ccccc2)CC1
0%	O=C(Nc1ccc(N2CCN(Cc3ccccc3F)CC2)cc1)c1ccc([N+](=O)[O-])o1
-1%	COc1ccccc1C1(O)CC2CCC(C1)N2S(=O)(=O)c1ccc(C(C)=O)cc1 (configuration not stated)
5%	Cc1ccc(-c2cc(C(F)F)nc(NCc3cccs3)n2)cc1
-7%	CCc1ccc(OC(C)c2nnc(SCC(=O)Nc3ncccc3C)n2C)cc1 (configuration not stated)
-3%	CCCc1cc(C(=O)Nc2cc(C)ccc2O)no1
-5%	CC(Sc1n[nH]c(-c2cccs2)n1)C(=O)Nc1ccccc1F (configuration not stated)
2%	Clc1cccc(Cl)c1COc1ccncc1
-1%	C#CCSc1cc(C(F)(F)F)nc(-c2ccccn2)n1
-7%	COc1ccc(-c2n[nH]c3c2C(c2ccc(Cl)cc2Cl)NC3=O)cc1 (configuration not stated)
-1%	COc1ccccc1CNC(=O)CSc1ccc(-c2cccc([N+](=O)[O-])c2)nn1
-10%	COc1ccc(C(=O)NNC(=O)c2cc(C)[nH]n2)cc1
10%	COC(=O)CN(c1nc(C)cc(OC)n1)S(=O)(=O)c1ccc(C)cc1
-7%	CN1CCc2ccccc2CC1=O
-8%	COc1ccc(/C=C(\C#N)C(=O)OC2CCOC2=O)cc1 (configuration not stated)
0%	O=c1c(Br)c(N2CCOCC2)cnn1-c1ccccc1
-4%	CCOc1ccc(CC2c3cc(OCC)c(OCC)cc3CCN2C(=O)CN2CCN(C)CC2)cc1OCC (configuration not stated)
-17%	Cc1ccc(Cn2ccc(NC(=O)c3cc4nc(-c5ccco5)cc(C(F)(F)F)n4n3)n2)cc1
-9%	Clc1ccc(CSc2ncn(-c3ccccc3)n2)cc1
-12%	O=C(NCc1ccncc1)NC1CCCCC1
-10%	CCOC(=O)CNC(=O)c1cnn2cccnc12
-5%	CCc1nc2ccccc2c(C(=O)OCC(=O)N(CC(C)C)c2c(N)n(Cc3ccccc3)c(=O)[nH]c2=O)c1C
-1%	CC(=O)NCC(=O)N(c1ccccc1)C1(C(=O)NC2CCCCC2)CCCCC1
-1%	CN(C)Cc1ccccc1-c1cc(N(C)C)ncn1
2%	Cc1nn(CC(=O)NCCC2=CCCCC2)c(C)c1[N+](=O)[O-]
-3%	COCCn1c(N)c(Sc2ccccc2)c(=O)[nH]c1=O
-1%	Cc1sc(N)c(C#N)c1C
-4%	COC(=O)CN(C)C(=O)c1ccccc1OC1CCN(S(C)(=O)=O)CC1
-8%	CC1CC(C)CN(CCCNC(=O)c2cc3c(=O)[nH]c4ccccc4c3n2C)C1 (configuration not stated)
-5%	CCOc1cc(C(=O)Nc2nnc3n2CCS3)cc(OCC)c1OCC
3%	O=C(Nc1nccs1)C1CCN(S(=O)(=O)c2ccc(F)cc2)CC1
-6%	CCOC(=O)N1CCN(C(=O)CSc2ccc3nnc(CCNC(=O)c4ccccc4)n3n2)CC1
-3%[0.501 µM]	CCCC[n+]1ccn(-c2nc3ccccc3nc2[N-]S(=O)(=O)c2ccccc2)c1
2%	CCCCC(=O)NC(=S)NNC(=O)c1ccc(Cl)cc1Cl
2%	O=C1NC2=C(C(=O)CCC2)C(c2ccc(OC(F)F)cc2)N1 (configuration not stated)
3%	CCOc1ccc(NC(=O)C(C)Sc2nc3ncccc3o2)cc1 (configuration not stated)
2%	CCCCC(=O)N1CCN(c2nc3ccc(OCC)cc3s2)CC1
3%	Cn1cc(CNCc2cnc3ccccn23)c(-c2ccc(Oc3ccccc3)cc2)n1

Additional records.
KAT2A inh	smiles
-5%	Nc1nc(-c2ccccn2)nc(N)c1Cc1ccc(Cl)cc1Cl
-20%	O=C(O)c1cc(/C=C/c2ccc(N3CCOCC3)cc2)nc2ccccc12
-2%	NC(N)=Nc1nc2ccc(Br)cc2c(=O)[nH]1
-3%	CC12CCC(C(=O)NCCCn3ccnc3)(OC1=O)C2(C)C (configuration not stated)
-3%	Cc1nc(C)n(CC(=O)c2ccc(Cl)cc2Cl)n1
-3%	Cc1ccc(C(=O)N/C(=C\c2ccc(-c3ccc(Br)cc3)o2)C(=O)NC2CCS(=O)(=O)C2)cc1 (configuration not stated)
-6%	Cc1ccc(Nc2ncnc3c2oc2ccccc23)cc1
-1%	Cc1c(OC(C)C(=O)NCCCN2CCOCC2)ccc2c3c(c(=O)oc12)CCC3 (configuration not stated)

16 compounds already listed, arranged by length of the SMILES, lowest first.
KAT2A inh	smiles
-6%	Cc1ccc(Nc2ncnc3c2oc2ccccc23)cc1
-2%	NC(N)=Nc1nc2ccc(Br)cc2c(=O)[nH]1
-3%	Cc1nc(C)n(CC(=O)c2ccc(Cl)cc2Cl)n1
2%	CCCCC(=O)NC(=S)NNC(=O)c1ccc(Cl)cc1Cl
2%	CCCCC(=O)N1CCN(c2nc3ccc(OCC)cc3s2)CC1
-5%	Nc1nc(-c2ccccn2)nc(N)c1Cc1ccc(Cl)cc1Cl
-5%	CCOc1cc(C(=O)Nc2nnc3n2CCS3)cc(OCC)c1OCC
2%	O=C1NC2=C(C(=O)CCC2)C(c2ccc(OC(F)F)cc2)N1 (configuration not stated)
3%	O=C(Nc1nccs1)C1CCN(S(=O)(=O)c2ccc(F)cc2)CC1
-20%	O=C(O)c1cc(/C=C/c2ccc(N3CCOCC3)cc2)nc2ccccc12
-4%	COC(=O)CN(C)C(=O)c1ccccc1OC1CCN(S(C)(=O)=O)CC1
3%	Cn1cc(CNCc2cnc3ccccn23)c(-c2ccc(Oc3ccccc3)cc2)n1
-1%	Cc1c(OC(C)C(=O)NCCCN2CCOCC2)ccc2c3c(c(=O)oc12)CCC3 (configuration not stated)
-3%[0.501 µM]	CCCC[n+]1ccn(-c2nc3ccccc3nc2[N-]S(=O)(=O)c2ccccc2)c1
-6%	CCOC(=O)N1CCN(C(=O)CSc2ccc3nnc(CCNC(=O)c4ccccc4)n3n2)CC1
-3%	Cc1ccc(C(=O)N/C(=C\c2ccc(-c3ccc(Br)cc3)o2)C(=O)NC2CCS(=O)(=O)C2)cc1 (configuration not stated)

The list continues:
KAT2A inh	smiles
-5%	C=CCNC(=S)Nc1c(C(=O)OC)[nH]c2cc(OC)ccc12
-12%	Cc1cc(C(=O)N/N=C/c2ccc(C)s2)n[nH]1
0%	COc1ccc2nc(NCCCO)[nH]c2c1
1%	CC(=O)N1CCC(N(CCN2CCOCC2)C(=S)Nc2c(C)cccc2C)CC1
-4%	O=C(Cc1cccs1)NCCCc1ccccc1
0%	COc1cc(OC)cc(C(=O)Nc2c(C(=O)Nc3ccc(F)cc3)oc3ccccc23)c1
2%	c1ccc(C(c2nnnn2Cc2cccs2)N2CCN(C3CCCC3)CC2)cc1 (configuration not stated)
-10%	COc1ccc(NC(=O)/C(C#N)=C/c2ccc(OCCN3CCOCC3)c(OC)c2)c(OC)c1
-13%	COc1ccc2sc(N(CCN(C)C)C(=O)/C=C/c3cccs3)nc2c1
-12%	O=C(CCN1CCN(c2ccc(Cl)cc2)CC1)Nc1ccccc1F
0%	Cc1cc2ccccc2c(=O)n1CC(=O)NCC(=O)N1CCN(c2ccccc2F)CC1
-6%	CCNc1nc(Cl)nc(-c2cn(-c3ccccc3)c3ccccc23)n1
4%	NC(=O)CNC(=O)c1cccc(Cl)c1
-2%	Cc1cc(C)cc(N(CC(=O)Nc2cc(C)ccc2C)S(=O)(=O)c2c(C)[nH]c(=O)[nH]c2=O)c1
-4%&1%	CCCN(CCC)CCCNC(=O)Cn1cnc2sc(C)c(S(=O)(=O)N3CCC(C)CC3)c2c1=O
0%	COc1ccc(C2=C3C(=O)OCC3Cc3ncn(Cc4ccccc4)c32)cc1 (configuration not stated)
0%	O=C(Nc1nc2ccccc2c(=O)[nH]1)c1ccccc1SCc1ccccc1
-2%	O=C(NC1CCCCC1)c1ccc(S(=O)(=O)NCc2ccco2)cc1
2%	Cc1cc(Nc2ncc(Cl)cc2Cl)n(-c2ccccc2C)n1
-2%	CN(C)S(=O)(=O)c1ccc(C(=O)N2CCCC2c2nc3ccccc3s2)cc1 (configuration not stated)
-14%	Cc1ccc(NC(=O)O/N=C2\CCCCC2c2ccc([N+](=O)[O-])cc2[N+](=O)[O-])cc1 (configuration not stated)
-4%	COc1ccc(S(=O)(=O)NCC(=O)N(CC(=O)NCC2CCCO2)Cc2ccccc2)cc1 (configuration not stated)
-4%	Cc1ccc(C)c(OCCC(=O)Nc2ccc3c(c2)OCO3)c1
20%	CC(C)(C)NC(=O)C(=O)NNC(=O)c1ccccc1Br
3%	COc1ccc(NC(=O)CCNC(=O)c2ccco2)cc1S(=O)(=O)N(C)C
0%	CN1CCN(C(=O)CCc2nc3ccccc3c(=O)[nH]2)CC1
-6%	COc1cc(C2c3cc4c(cc3C(O[C@@H]3OC5COC(c6cccs6)OC5C(O)C3O)C3COC(=O)C23)OCO4)cc(OC)c1O (some centres not stated)
-2%	CC(=O)c1ccc(NC(=O)C(C)OC(=O)CCN=C2NS(=O)(=O)c3ccccc32)cc1 (configuration not stated)
-5%	CC1CN(C(=S)Nc2ccccc2F)CC(C)O1 (configuration not stated)
10%	COc1ccc(NC(=O)c2ccco2)cc1NC(=O)c1ccc(C)c(C)c1
-8%	O=S(=O)(c1ccc(Br)s1)N1CCc2ccccc2C1
0%	Cn1cc2ccc([N+](=O)[O-])cc2n1
-4%	Cc1ccc(N/C(SCc2ccccc2C)=C(/C#N)C(=O)NCc2ccco2)cc1C
0%	CNS(=O)(=O)c1ccc(NC(=O)c2ccc(Cl)cc2Cl)cc1
0%	O=[N+]([O-])c1cccc(C2CC(c3ccccc3)=NN2c2ccccc2)c1 (configuration not stated)
-3%	CNS(=O)(=O)c1c(C)cc(C)c(N(C)S(=O)(=O)c2ccccc2)c1C
-7%	Cc1ccccc1OCC(=O)OCC(=O)c1ccc[nH]1
-27%	COc1ccc(NC(=O)NN2CCN(C)CC2)cc1
-4%	Cn1nc(C(=O)OCC(=O)c2ccc[nH]2)c2ccccc2c1=O
-19%	Cc1c(NC(=O)c2ccc(=O)oc2)c(=O)n(-c2ccccc2)n1C
-5%	O=C(CN(Cc1ccco1)C(=O)CNS(=O)(=O)c1ccc(F)cc1)NCCc1ccccc1
-17%	COc1ccc(C(=O)N/C(=C\c2ccc3c(c2)OCO3)C(=O)Nc2cccc(C(=O)O)c2)cc1
3%	CC(C)c1ccccc1OCC(=O)N(C)CC(=O)Nc1ccc(F)cc1
-2%	Cn1c(=O)c2c(nc(NCc3ccccc3)n2Cc2ccccc2Cl)n(C)c1=O
-10%	Cc1ccc(Cl)cc1N1CCN(C(=O)C2CCCN(S(=O)(=O)c3ccc(Br)s3)C2)CC1 (configuration not stated)
-6%	CCn1c(SCc2nc(-c3ccc(OC)c(OC)c3)no2)nnc1-c1cccs1
-1%	CCN(CC(=O)NCc1ccccn1)S(=O)(=O)c1cc(Cl)ccc1Cl
0%	Cn1c(=O)c2c(nc(N/N=C/c3cccnc3)n2Cc2ccc(F)cc2)n(C)c1=O
3%[0.501 µM]	c1ccc(-c2ccc(-c3cn4c(n3)CCC4)cc2)cc1
-2%	Cn1c(-c2ccccc2)cc2c3no[n+]([O-])c3ccc21
-10%	COc1cccc(NC(=O)c2ccccc2-c2nc(-c3ccccc3)no2)c1
-5%	COC(=O)C(CSCc1ccccc1)NC(=O)CSc1nc(N)cc(=O)[nH]1 (configuration not stated)
1%	Cc1ccc(-n2nc(C)c(NC(=O)CCl)c2C)cc1
-8%	COC(CN1C(=O)C(=O)/C(=C(/O)c2ccccc2)C1c1ccccn1)OC (configuration not stated)
-25%	Cc1ccc(C(=O)NCCSC2CCCCC2)cc1S(=O)(=O)Nc1ccccc1
-17%	Cc1cccc(OCC(=O)Nc2ccc3c(c2)OCCO3)c1

Going on with the list:
KAT2A inh	smiles
3%	CC(=O)Nc1ccc(C(=O)NCC(=O)OCc2c(F)cccc2Cl)cc1
-4%	CCN1C(=O)C(CC(=O)Nc2c(C)cccc2C)SC1=Nc1ccc(S(N)(=O)=O)cc1 (configuration not stated)
0%	CC(C)C(NS(=O)(=O)c1cccs1)C(=O)NCc1ccc2c(c1)OCO2 (configuration not stated)
2%	CCN1CCN(C(c2cccs2)C(C)NC(=S)NC2CCCCC2)CC1 (configuration not stated)

Assay outcomes from PubChem BioAssay.
